# Bioassay records deposited in PubChem BioAssay by ICCB-Longwood Screening Facility, Harvard Medical School.
# MbtI inh: MbtI salicylate synthase inhibition | P9WFX0 | purified MbtI enzyme, fluorescence intensity read-out | inhibition, %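 (about 17 µg/mL by stock and volumes)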 | 100,000 compounds, 0.89% hits;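 active = above 50% in both replicates, above 80% if mildly self-fluorescent; inactive = the rest, strongly fluorescent compounds included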;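 note: 0% = mean of negative and 100% = mean of positive controls; one replicate is shown; some compounds called inactive have numbers as strong as hits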
# Target sequence (P9WFX0 whole entry, looked up): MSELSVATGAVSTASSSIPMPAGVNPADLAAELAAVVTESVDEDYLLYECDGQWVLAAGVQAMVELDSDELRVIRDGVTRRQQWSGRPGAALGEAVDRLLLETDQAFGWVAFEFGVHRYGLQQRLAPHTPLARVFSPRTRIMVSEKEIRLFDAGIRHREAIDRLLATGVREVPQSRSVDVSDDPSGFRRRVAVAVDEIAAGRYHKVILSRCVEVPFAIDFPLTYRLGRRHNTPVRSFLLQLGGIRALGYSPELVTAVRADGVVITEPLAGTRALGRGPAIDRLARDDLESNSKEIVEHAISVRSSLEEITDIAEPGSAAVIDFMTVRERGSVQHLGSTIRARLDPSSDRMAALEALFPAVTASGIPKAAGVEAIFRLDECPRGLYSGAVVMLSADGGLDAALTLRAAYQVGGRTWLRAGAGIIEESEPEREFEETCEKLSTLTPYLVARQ
# Mtb MenB inh: Mtb MenB enzyme inhibition | 100,000 compounds, 0.43% hits | P9WNP5 | AID 540299 | inhibition, %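 (about 12 µg/mL by stock and volumes)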 | MenB enzyme assay, absorbance read-out; some hits fall short of the stated cut;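 active = mean of two replicates above 30%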;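 note: 0% = no compound and 100% = wells with inactive enzyme; the first replicate is given; strong numbers were not always called active; inactives centre near -10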
# Target sequence (P9WNP5 whole entry, looked up): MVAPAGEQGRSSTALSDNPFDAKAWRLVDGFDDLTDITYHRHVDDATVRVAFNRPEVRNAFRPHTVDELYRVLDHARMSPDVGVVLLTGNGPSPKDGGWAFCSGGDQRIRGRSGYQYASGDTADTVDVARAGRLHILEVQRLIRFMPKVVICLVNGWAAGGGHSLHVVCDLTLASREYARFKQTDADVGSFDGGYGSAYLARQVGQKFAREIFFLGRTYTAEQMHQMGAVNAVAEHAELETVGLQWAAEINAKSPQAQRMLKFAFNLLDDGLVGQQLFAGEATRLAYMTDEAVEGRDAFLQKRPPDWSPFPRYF
# Polio RdRp inh: poliovirus RNA polymerase inhibition; P03300; poliovirus polymerase elongation, fluorescence polarization; active compounds read low; % elongation, % (compound at 16.7 µg/mL); 150,000 compounds, 0.66% hits; AID 588519; in the data active = % elongation below about 90%; note: some results filed as inactive read as strong as hits
# Polio RdRp inh intensity: recorded beside Polio RdRp inh, whose call it bears; % elongation; measured here: total intensity read-out; formula for this scale not given here;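 total fluorescence in place of polarization; lower means less elongation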
# Starred values were filed as active, the others as inactive; i = inactive; . = no result given. Compounds were not picked by outcome; 1.7% or so of the library scored in one or more.
# The line under a structure holds: MbtI inh	Polio RdRp inh intensity	Polio RdRp inh	Mtb MenB inh
CC(=O)NNc1ncnc2ccccc12
  13	95	101	7
CCOC(=O)CSC1=Nc2ccccc2C2=NC(CC(=O)N3CCN(c4ccccc4)CC3)C(=O)N12 (configuration not stated)
  1	104	104	-23
Cc1ccc(N2C(=O)C3C4C=CC(CNC(=S)Nc5ccc(Br)cc5)(O4)C3C2=O)cc1 (configuration not stated)
  3	105	102	-28
CN1CCN(C(=O)/C(=C/c2cccs2)NC(=O)c2cccs2)CC1
  -12	105	103	-5
C=C(C)CSc1nnc(CNC(=O)OC(C)(C)C)n1-c1ccccc1
  3	100	102	-24
O=C(Cc1ccc(F)cc1)Nc1nnc(-c2ccc(F)cc2)o1
  -12	106	104	-13
O=C(Oc1ccc(C2=NCCS2)cc1)c1ccccc1Cl
  -6	110	110	-22
Fc1cccc(NC2=NCCS2)c1
  -5	107	108	0
Cc1ccc(NC(=O)c2ccco2)c(N)c1
  .	120	113	-2
O=C(NCCC(c1ccccc1)c1ccccc1)c1cc2ccccc2c(=O)o1
  .	106	103	-26
CC1CCN(CC(C)OC(=O)c2ccc3c(c2)OCCO3)CC1 (configuration not stated)
  31	103	102	-6
C/C(=N\OCc1nc2c3cnn(Cc4ccccc4)c3ncn2n1)c1ccccc1
  -3	103	103	9
O=C(c1cc(S(=O)(=O)N2CCC3(CC2)OCCO3)ccc1F)N1CCC2(CC1)OCCO2
  -12	104	103	0
Cc1ccsc1C(=O)Nc1ccccc1N1CCOCC1
  16	108	102	-7
O=C(NCC1CCCO1)c1cc2c(=O)[nH]c3ccccc3c2s1 (configuration not stated)
  11	109	101	-5
Cc1ccccc1OCc1nnc(N)s1
  .	112	106	-16
O=C(CN1CCCC1c1ccc2c(c1)OCCO2)NC(=O)Nc1ccccc1F (configuration not stated)
  3	103	101	0
CN(C)C(=O)/C(=C\c1ccccc1)NC(=O)c1ccccc1
  9	104	102	-9
COC(=O)Nc1ccc(SC(F)(F)C(F)(F)C(F)(F)F)cc1
  15	107	104	-23
CCOC(=O)c1sc(NC(=O)Nc2ccc(F)cc2)nc1C
  55	99	100	8
Cc1ccc(OCCOn2nnc3ccc(S(=O)(=O)N(C)C)cc32)cc1
  -1	112	103	-42
CN(CC(=O)Nc1cccnc1)S(=O)(=O)c1cccc2cccnc12
  -5	106	102	-7
Cc1ccc(CC(C#N)Sc2nnc(-c3ccccc3F)o2)cc1 (configuration not stated)
  -7	106	102	-13
COc1cccc(S(=O)(=O)Nc2ccc(C(=O)N3CCCCCC3)cc2)c1
  -6	101	101	-15
Fc1ccc(NC(=S)N2CCc3ccccc32)cc1
  -4	100	101	-5
CS(=O)(=O)NC12CC3CC(CC(C3)C1)C2
  9	102	101	-14
COc1ccc(CCNC(=O)C(C(C)C)N2Cc3ccccc3C2=O)c(OC)c1OC (configuration not stated)
  -10	104	102	5
Fc1ccc(-c2cn3ccsc3n2)cc1
  4	102	101	-25
Cc1ccc(-c2nc(Nc3ccc(C)c(Cl)c3)sc2CC(=O)O)cc1
  19	115	107	-11
COc1ccc(N2CCN(C(=O)COc3ccccc3-c3nnc(-c4ccccc4)o3)CC2)cc1
  13	101	92	-31
CCN(CC)C(=S)NC(=O)c1ccccc1
  -2	108	103	-9
CCN=C1S/C(=C\c2ccc(O)c(OCC)c2)C(=O)N1CC
  -5	100	100	-12
CC(C)Cn1cnc2c1c(=O)[nH]c(=O)n2CC(C)C
  -8	107	101	-7
COc1ccccc1Cn1c(=O)c2ccccc2n2c(SCC(=O)N3CCOCC3)nnc12
  -9	104	104	-6
Cc1cc(=O)oc2c1c(C)nn2CN1CCN(C)CC1
  15	109	106	-19
CCOC(=O)c1c(C)[nH]c(C(=O)Cn2nnc(-c3ccccc3)n2)c1C
  4	102	106	11
CC(=O)N1c2ccc(S(=O)(=O)N3CCC(C(=O)NCCC4=CCCCC4)CC3)cc2CC1C (configuration not stated)
  -17	103	100	-25
O=C(NCc1ccco1)C1CCCN1S(=O)(=O)c1ccc2ccccc2c1 (configuration not stated)
  .	107	103	5
O=C(NC1CCCC1)c1ccccc1-c1nc(-c2ccc(Cl)cc2)no1
  -7	104	104	-16
O=C(NC1CC1)c1ccccc1NS(=O)(=O)c1ccc(F)cc1
  -18	97	103	.
CCc1ccc2c(CC(=O)Nc3ccc(N4CCOCC4)cc3)coc2c1
  -15	109	104	-5
O=C(NC(=S)Nc1ccccc1O)c1ccccc1
  8	103	101	-64
CCCCn1ccnc1C(=O)c1cc(F)c(F)c(F)c1F
  -14	105	101	.
O=C(NCc1ccccc1)c1cccnc1
  14	100	101	-23
CCOC(=O)c1nn(-c2ccccc2)c(C(=O)OCC)c1N(C(=O)CC)C(=O)CC
  -15	104	102	-13
COC(=O)c1ccc(CSc2nc3ccc(S(N)(=O)=O)cc3[nH]2)cc1
  10	105	100	-17
CN(C)c1ccc(/C=C2\CSC(=S)NC2=O)cc1
  .	248	45	-9
COc1cc2[nH]c3c(=O)n(Cc4ccc(Cl)cc4)cnc3c2cc1OC
  23	104	101	-15
c1ccc2[nH]c(NN=C3CCCC3)nc2c1
  42	100	107	16
CCc1ccc(NC(=O)N(CCN(C)C)C(C)c2cccnc2)cc1 (configuration not stated)
  14	104	102	-1
CC(=O)N1N=C(c2ccncc2)OC1(C)C
  90	101	100	25
Cc1ccccc1Nc1nc(N)nc(COC(=O)CCc2nc3ccccc3c(=O)[nH]2)n1
  -3	107	108	-3
N#Cc1ccc(COC(=O)C2CCCCN2S(=O)(=O)c2cccc3nsnc23)cc1 (configuration not stated)
  -2	53*	42*	-3
CCCNC(=O)Nc1ccc2snnc2c1
  89	103	100	12
CCN(CC(=O)Nc1cccc(OC)c1)C(=O)C1CCN(C(=O)Nc2ccccc2)CC1
  91	112	107	-2
COc1ccc(NC(=O)c2ccc3c(-c4ccccc4)onc3c2)cc1
  0	103	100	12
COC(=O)c1cc(S(=O)(=O)NCc2ccccc2)cn1C
  -3	104	105	1
Cn1c(N)c(C(=O)CSc2nc3sc4c(c3c(=O)n2Cc2ccco2)CCCC4)c(=O)[nH]c1=O
  1	93	104	-11
CC1CC(C)CN(CCCNC(=O)c2ccc3c(SCC(=O)O)c4c(nc3c2)CCC4)C1 (configuration not stated)
  5	92	95	-6
CCC(=O)Nc1ccc2c(c1)C(=O)NC2=O
  i	103	104	-32

# The list continues:
# The line under a structure holds: MbtI inh	Polio RdRp inh intensity	Polio RdRp inh	Mtb MenB inh
COC(=O)c1c[nH]c2ccccc12
  8	95	102	2
COCC(=O)Nc1ccccc1C(=O)N1CCN(c2ccccc2)CC1
  -3	102	100	8
COc1cccc(NC(=S)N(CCC(C)C)C2CCN(C(C)=O)CC2)c1
  -7	102	100	-74
c1cnc(Sc2nnc3ccccn23)nc1
  -9	97	100	-20
O=C(O)c1ccc2ccccc2n1
  13	105	99	7
N#CC(C(=O)CN1CCOCC1)c1ccccc1 (configuration not stated)
  3	104	104	-4
Cc1c2cnn(-c3ccccc3)c(=O)c2c(C)n1CCCC(=O)N1CCCCC1
  -5	105	101	-4
Cc1ccc2nc(SCCCC#N)[nH]c2c1
  -4	100	100	6
O=S(=O)(Nc1cc(Cl)ccc1N1CCCCC1)c1cccc2nsnc12
  3	104	103	5
COc1cc(Br)c(CSc2n[nH]c(=O)n2C2CC2)cc1OC
  -5	104	106	-12
O=C(Nc1ccccc1)N1CCN(c2ncccn2)CC1
  0	109	108	-6
Cc1ccc(N(Cc2ccc(C(=O)NCc3ccco3)cc2)S(C)(=O)=O)cc1C
  2	103	103	8
O=C(COn1nnc2ccccc21)N1CCc2ccccc2C1
  2	97	101	.
CN(C)c1c2c(c(C#N)c3nc4ccccc4n13)CCC2
  8	101	104	-2
O=C(Cc1cccc(C(F)(F)F)c1)NNc1c(F)c(F)cc(F)c1F
  -13	100	100	-13
Cc1ccc(-n2nnc3c(=O)n(CC#N)cnc32)cc1Cl
  -2	108	103	-12
CC(C)CNCC1OCc2ccccc2CO1
  -12	99	98	-12
COC(=O)c1ccc(Cn2nc(C(F)(F)F)cc2C)cc1
  -5	103	100	-8
COc1ccc(-c2cc(C(F)F)nc(-n3nc(C)cc3C)n2)cc1
  90	100	102	-22
N#Cc1ccc(Cn2cnc3ccccc32)cc1
  -11	101	104	-19

# The last 2 compounds of the section before come first, to join the parts.
# The line under a structure holds: MbtI inh	Polio RdRp inh intensity	Polio RdRp inh	Mtb MenB inh
COc1ccc(-c2cc(C(F)F)nc(-n3nc(C)cc3C)n2)cc1
  90	100	102	-22
N#Cc1ccc(Cn2cnc3ccccc32)cc1
  -11	101	104	-19
Cc1ccc(C(=O)N2CCCn3c2nc2ccccc23)cc1
  16	100	99	20
CN(CC1COc2ccccc2O1)C(=S)NC1CCCCC1 (configuration not stated)
  26	105	101	-23
COCc1c(C(=O)O)oc2ccccc12
  0	105	106	4
O=C(N/N=C/c1ccco1)c1cccc(N2CCCC2=O)c1
  22	103	99	-40
COC(=O)CSc1nc2ccccc2nc1SCC(=O)OC
  26	105	103	4
O=C(C1CCC(Cn2c(=O)[nH]c3ccsc3c2=O)CC1)N1CCCC1 (configuration not stated)
  5	103	99	-12
CS(=O)(=O)NCc1ccc2c(c1)OCO2
  -16	101	106	-10
c1coc(CNCC2OCCCCO2)c1
  -8	101	103	-28
COc1cccc(CNC(=O)CN2C(=O)c3cccnc3Oc3ccc(C)cc32)c1
  -7	102	100	4
C=CCNC(=O)C1CC(c2ccccc2F)=NO1 (configuration not stated)
  1	106	103	5
O=C(CN1C(=O)C2CC=CCC2C1=O)Nc1ccc2c(c1)CCC2 (configuration not stated)
  -7	107	107	-18
COC(=O)C1=C(C)OC(N)=C(C#N)C1c1ccc(C(=O)OC)cc1 (configuration not stated)
  .	100	98	-4
Cc1cc(C)n(-c2ccc(C(=O)Nc3nc4ccccc4s3)cc2)n1
  -4	109	107	.
CCOc1ccccc1N(C)C(=O)c1cn(CC(C)C)c(=O)c2cc(OC)c(OC)cc12
  6	102	99	-12
CCOc1cc2nccnc2cc1OCC
  157	101	103	-19
Cc1cc(C)n2ncnc2n1
  -9	99	98	-78
O=C(NCCCN1CCCC1=O)c1ccc(CNS(=O)(=O)c2ccc(F)cc2)cc1
  -1	100	100	-15
O=C(CN1CCN(CCN=Cc2c(O)[nH]c(=O)[nH]c2=O)CC1)Nc1ccc(Br)cc1
  -12	98	100	1
O=C1CCN(C(=O)/C=C/c2ccccc2)c2ccccc21
  8	102	99	-5
CCOC(=O)N1CCC(c2cc(=O)n3[nH]c(-c4ccccc4)cc3n2)CC1
  -38	99	104	12

# Compound profiles (already shown). Values in the order: MbtI inh, Polio RdRp inh intensity, Polio RdRp inh, Mtb MenB inh
# Listed for CCOc1cc2nccnc2cc1OCC : 157, 101, 103, -19
# Listed for O=C(NCCCN1CCCC1=O)c1ccc(CNS(=O)(=O)c2ccc(F)cc2)cc1 : -1, 100, 100, -15

# Next part.
# The line under a structure holds: MbtI inh	Polio RdRp inh intensity	Polio RdRp inh	Mtb MenB inh
Cc1ccc2[nH]cc(NC(=O)NCc3ccco3)c(=O)c2c1
  90	101	101	22
O=C(COc1ncnc2ccccc12)Nc1ccc(N2CCCCC2)cc1
  0	95	100	-10
O=C(Cc1ccccc1)NCc1ccncc1
  .	115	110	-18
COCCCNc1ncnc2ccc(Br)cc12
  -17	102	100	-5
Cc1cccc(NC(=O)NCc2ccc3c(c2)cc(C)n3C)c1
  -9	106	102	-30
C=CCNc1nc(N)sc1C#N
  29	104	105	-80
CC1=C(C#N)C(C(F)(F)F)(C(F)(F)F)N=C(c2ccncc2)N1
  -2	108	106	-28
CC1(C)CC(NS(=O)(=O)c2ccccc2)CC(C)(C)N1
  -2	102	99	-13
O=C(CCS(=O)(=O)c1ccc2c(c1)NC(=O)CS2)NCc1ccccc1
  -19	104	102	-3
CC12CC3CC(C)(C1)CC(C(=O)NC1=NCCS1)(C3)C2
  -5	101	100	-19
CC1=CC(C)C(C(=O)O)C(C(=O)O)C1 (configuration not stated)
  -7	103	102	.
CCC(NC(=O)c1ccc(S(=O)(=O)N2CCOCC2)cc1)C12CC3CC(CC(C3)C1)C2 (configuration not stated)
  .	108	102	-12
COC(=O)C1C2C=CC3(CN(C4CCCC4)C(=O)C13)O2 (configuration not stated)
  -8	101	105	-42
COc1cc2c(cc1OC)C(C)N(C(=O)c1nccnc1C(=O)O)CC2 (configuration not stated)
  9	94	103	-30
CC(=O)Nc1cccc(C(=O)OC(C)C(=O)N(C)c2ccccc2)c1 (configuration not stated)
  -2	111	105	-8
CC1(C)C2CC=C(/C=N/NC(N)=O)C1C2 (configuration not stated)
  -5	110	104	2
Cn1c(C(=O)NCc2ccc3c(c2)OCO3)cc2sccc21
  -2	98	99	-11
CC1=Nc2ccccc2N=C(N)C1c1ccc(Cl)cc1 (configuration not stated)
  -8	108	101	-12
C[N+]1(C)CC(=O)OC(CO)C1 (configuration not stated)
  -11	100	102	.
COc1cc(OC)c2nc(C)c3c(c2c1)SCC3
  -209	94	99	-2
Cc1ccc(C)c(-n2c(SCc3ccc(C#N)cc3)nnc2-c2cc3sccc3n2C)c1
  -11	100	101	-17
